From PubChem
Mtb growth = Confirmatory growth inhibition assay against Mycobacterium tuberculosis H37Rv, potency (AID 1949); most inactive calls were filed without a number and no value below 0 was filed; one-dose inhibition, % at 10 µg/mL; IC50 in µg/mL for titrated hits; 100,000 compounds, 1.6% hits;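 active = confirmed in a dose series; inconclusive = about 50% or more but not retested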;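 also: bacteria grown 7 days with compound before Alamar blue readout; 0% = untreated bacteria and 100% = reference antibiotic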
* marks the source's active call; other numbers are inactive results; i = inactive; ? = inconclusive. Only part of the results is shown, so the mix of outcomes need not match the whole.

SMILES | Mtb growth
C=CCOc1ccc(C(=O)Nc2ccc(C(=O)OCC)cc2)c(O)c1 | 3.7%
COc1ccc(Cl)cc1S(=O)(=O)Oc1cc(C)cc(C)c1 | i
O=C(c1ccc(NC(=S)Nc2ccc(Cl)c(Cl)c2)cc1)N1CCCCC1 | 3.1%
O=C(O)c1cccc(NCc2cccnc2)c1 | i
O=[N+]([O-])c1ccc(NC(=S)Nc2ccc3c(c2)oc2ccccc23)cc1 | ?
CCOC(=O)c1cc2c(=O)n3ccccc3nc2n(CC2CCCO2)c1=NC(=O)c1cccs1 (stereo not drawn) | 8.8%
Cc1ccc(C(CC(=O)N2CCCC2)c2ccco2)cc1 (stereo not drawn) | i
CCOc1ccc(S(=O)(=O)N(CC(=O)Nc2ccccc2OC)c2ccc(C)cc2)cc1 | i
CCCOc1ccccc1-c1nc(SCCC(=O)O)n[nH]1 | i
CC1CN(C(=O)c2ccc(I)cc2)CC(C)O1 (stereo not drawn) | i
CCC(C)c1ccccc1OCC(=O)Nc1ccc(S(=O)(=O)N2CCCCCC2)cc1 (stereo not drawn) | 14.2%
CC(C)(C)CNc1cc(N2CCN(S(=O)(=O)c3ccccc3)CC2)ccc1[N+](=O)[O-] | 6.0%
CCN(CC)c1ccc(NC(=S)NCc2ccc(F)cc2)cc1 | i
CCOc1ccc(N(CC(=O)Nc2cccc(C(C)=O)c2)S(=O)(=O)c2ccc(SC)cc2)cc1 | i
Cc1ccc(C(=O)NC(=S)Nc2cccc(NC(=O)c3ccco3)c2)c(C)c1 | 4.8%
Cc1nc(CSc2ncnc3sc(C)c(C)c23)cs1 | i
CC(C)C(C(=O)Nc1ccc(S(=O)(=O)Nc2nccs2)cc1)N1C(=O)c2ccccc2C1=O (stereo not drawn) | i
COc1ccc(S(=O)(=O)Nc2ccc(S(=O)(=O)Nc3cccc(Cl)c3)cc2)cc1 | i
Cc1cc(C)c(Cn2c(CCCO)nc3ccccc32)c(C)c1 | i
CCCC(C)NC(=O)c1ccc(NC(=O)C(C)C)cc1 (stereo not drawn) | i
Cc1[nH]c(=O)[nH]c(=O)c1C(F)(F)C(F)(F)C(F)(F)F | 2.6%
O=c1[nH]c(/C=C/c2ccc(Br)cc2)c([N+](=O)[O-])c(=O)[nH]1 | 7.1%
CCCCC(=O)Nc1ccc(C(=O)N2CCN(C)CC2)cc1 | i
CC1CCN(S(=O)(=O)c2cc(Cl)ccc2Cl)CC1 | i
CCOC(=O)C1=C(C)NC(=S)NC1c1cc(OC)c(OC)c(OC)c1 (stereo not drawn) | i
Cc1ccc(N2C(=O)N(c3ccccc3Cl)C3CS(=O)(=O)CC32)cc1 (stereo not drawn) | i
COC(=O)c1ccccc1NC(=O)CSCC(=O)Nc1ccc(F)cc1 | 0.6%
CCOC(=O)C1=C(c2ccccc2)NC(=S)NC1c1cc([N+](=O)[O-])ccc1OC (stereo not drawn) | 1.4%
Cc1ccc(-n2c(C)n[nH]c2=S)cc1 | i
C=CCOc1cc(Br)c(CO)cc1OC | i

Three compounds drawn at random from those above, as already listed:
SMILES | Mtb growth
CCOC(=O)C1=C(C)NC(=S)NC1c1cc(OC)c(OC)c(OC)c1 (stereo not drawn) | i
Cc1ccc(-n2c(C)n[nH]c2=S)cc1 | i
CCOC(=O)C1=C(c2ccccc2)NC(=S)NC1c1cc([N+](=O)[O-])ccc1OC (stereo not drawn) | 1.4%

Other entries:
SMILES | Mtb growth
CCOC(=O)COc1ccc2c(C)cc(=O)oc2c1C(=O)c1ccccc1 | 14.1%
CC(C)C(C(=O)Nc1cccc([N+](=O)[O-])c1)N1C(=O)c2ccccc2C1=O (stereo not drawn) | i
CC(=O)N1N=C(c2cccs2)CC1c1sccc1C (stereo not drawn) | i
CC(C)COc1ccc(C(=S)N2CCCC2)c2ccccc12 | i
CC(=O)c1cccc(OCCCOc2ccc(Cl)c3cccnc23)c1 | 4.6%
O=C(Nc1ccccc1)N(Cc1cccs1)C1CCS(=O)(=O)C1 (stereo not drawn) | i
COc1ccc(-c2oc(NC(=O)c3ccco3)c(C#N)c2-c2ccc(OC)cc2)cc1 | 2.2%
Cc1cc(Cl)ccc1OCC(=O)NCc1ccc(S(N)(=O)=O)cc1 | i
CCN(CC)S(=O)(=O)c1ccc2nc(NC(=O)C(c3ccccc3)c3ccccc3)sc2c1 | 44.0%
CC1(C)CC(=O)C2=C(C1)N(c1ccccc1)C(=O)C2(NC(=O)c1cccnc1)C(F)(F)F (stereo not drawn) | i
COc1ccc(CNC(C)C(O)c2ccccc2)c(OC)c1 (stereo not drawn) | i
CC(C)(c1ccccc1)c1ccc(OCCN2CCCC2)cc1 | i
O=C(CSc1nnc(SCc2ccccc2)s1)NC1CCCCC1 | i
O=C(O)c1ccc(Cl)c(NC(=S)NC(=O)c2ccccc2Br)c1 | 2.4%
O=C(Nc1ccc(F)cc1)c1cccc(C(=O)Nc2ccc(F)cc2)n1 | 0.4%
Cc1ccc(NC(=O)C2CC2)c(Br)c1 | i
CCOC(=O)c1c(NC(=O)c2ccccc2[N+](=O)[O-])sc2c1CCCCC2 | 5.0%
N#Cc1c(SCC(=O)NC23CC4CC(CC(C4)C2)C3)nsc1SCC(=O)NC12CC3CC(CC(C3)C1)C2 | i
COc1cccc(C(=O)N2CCC(N3CC(C)CC(C)C3)CC2)c1 (stereo not drawn) | i
Cc1ccc(-c2nn(CCC(=O)Nc3cccc(Cl)c3)c(=O)c3ccccc23)cc1 | 2.3%

Part of the list above, as comma-separated lines.
smiles,Mtb growth
CCOC(=O)c1c(NC(=O)c2ccccc2[N+](=O)[O-])sc2c1CCCCC2,5.0%
O=C(Nc1ccc(F)cc1)c1cccc(C(=O)Nc2ccc(F)cc2)n1,0.4%
Cc1ccc(-c2nn(CCC(=O)Nc3cccc(Cl)c3)c(=O)c3ccccc23)cc1,2.3%
COc1ccc(CNC(C)C(O)c2ccccc2)c(OC)c1 (stereo not drawn),i

3 compounds from above, ordered by count of non-hydrogen atoms, lowest first:
SMILES | Mtb growth
CC(C)COc1ccc(C(=S)N2CCCC2)c2ccccc12 | i
O=C(O)c1ccc(Cl)c(NC(=S)NC(=O)c2ccccc2Br)c1 | 2.4%
CCOC(=O)c1c(NC(=O)c2ccccc2[N+](=O)[O-])sc2c1CCCCC2 | 5.0%

Other records
SMILES | Mtb growth
CCSc1nc(C)c(CC)c(C)c1C(N)=O | i
CCCNC(=O)C1CCN(C(=O)c2ccccc2Cl)CC1 | i
OC(COc1ccc(Cl)cc1)CSCc1ccc(Cl)cc1 (stereo not drawn) | 33.5%
Cc1cc(C)cc(NC(=S)N2CCOCC2)c1 | 2.9%
CC1(C)Cn2c(nnc2-c2ccccc2)S1 | i
CCOC(=O)Cc1c(C)nc2c(-c3ccccc3)c(C(F)(F)F)nn2c1C | i
CCOC(=O)c1ccc(NC(=O)CSc2nnc(CSc3nc(C)cc(C)n3)o2)cc1 | i
COC(=O)c1cc(-c2ccccc2)sc1NC(=S)Nc1ccn(C)n1 | i
Cn1c(SCC(=O)c2ccc(F)cc2)nnc1-c1ccco1 | i
COc1cc(NC(=O)C(C)Oc2cccc(Cl)c2)cc(OC)c1 (stereo not drawn) | 0.8%
CCOC(=O)C1CCN(S(=O)(=O)c2ccc(Br)c(OCC)c2)CC1 | 2.6%
COC(=O)c1cc(Cl)c(C(=O)OC)cc1Cl | i
C=CCc1ccc(OCC(O)COc2ccc(CC=C)cc2OC)c(OC)c1 | 0.6%
CCCCC(=O)NC(=S)Nc1ccc(Cl)c(C(=O)O)c1 | i
N#Cc1ccc(-n2cnc3ccccc3c2=O)cc1C#N | 0.8%
CCN(CC)S(=O)(=O)c1ccc(NC(=O)COc2ccc3c(C)c(C)c(=O)oc3c2)cc1 | i
CN(C)c1cccc2c(C=O)ccc(N(C)C)c12 | 8.7%
O=C1c2cccc3c([N+](=O)[O-])ccc(c23)C(=O)N1c1ccc(I)cc1 | i
COc1cc(NC(=O)CSC2=C(C#N)C(c3cccc(Cl)c3Cl)C3=C(CCCC3=O)N2)c(OC)cc1Cl (stereo not drawn) | i
COC(=O)C1=C(C)N=C2SCCC(=O)N2C1c1ccc(C(C)(C)C)cc1 (stereo not drawn) | i
CN1CCN(c2ccc(C(=O)c3ccc(Br)cc3)cc2[N+](=O)[O-])CC1 | 6.0%
Clc1ccc(SCCN2CCOCC2)cc1 | i
COC(=O)c1ccccc1NC(=O)Nc1ccccc1F | 1.6%
CCOC(=O)CC(=O)CSc1nc(C)cc(-c2cccnc2)c1C#N | i
O=C(Cc1cccs1)Nc1ccc(-c2nnc(-c3ccccc3)o2)cc1 | i
CCCCC(=O)Nc1ccc(NC(=O)COc2ccccc2C)cc1OC | i
COC(=O)c1cccc(NS(=O)(=O)c2ccc(F)cc2)c1C | i
O=C(CSc1nnc(NC(=O)c2ccccc2Br)s1)NCc1ccco1 | 1.4%
O=C(COc1ccccc1Cl)N1CCN(c2c(F)c(F)c(F)c(F)c2F)CC1 | 1.0%
COc1ccc(-c2c(C)n([O-])c(C)c(-c3ccccc3)[n+]2=O)c(OC)c1 | i
Cc1ccc(NC(=O)CCn2nc(-c3ccccc3)c3ccccc3c2=O)cc1 | i
O=C(Nc1scc(-c2ccccc2)c1C(=O)O)c1ccc(F)cc1 | 12.2%
COC(=O)CCS(=O)(=O)c1cc(Cl)ccc1Cl | i
COC(=O)C1=C(C)Nc2c(c(=O)n(C)c(=O)n2C)C1c1cc(OC)c(OC)c(OC)c1 (stereo not drawn) | i
COc1ccccc1N1CCN(C(=O)Nc2ccc(F)cc2)CC1 | i
CCN(CC)c1cccc(Oc2nc([N+](=O)[O-])nn2C)c1 | 1.81µg/mL*
CC(Oc1ccc(Br)cc1)C(=O)N1CCCC1 (stereo not drawn) | i
CCOC(=O)N1CCc2c(sc(NCc3cccc(OC)c3)c2C(=O)Nc2cc(OC)ccc2OC)C1 | i
CC(COCC(O)CN1CCN(C)CC1)c1ccccc1 (stereo not drawn) | i
COC(=O)CSc1nnc(NC(=O)c2ccc(C(C)(C)C)cc2)s1 | <0.1µg/mL*
Cc1cccc(/C(N)=N/OC(=O)c2ccccc2F)c1 | 4.4%
COc1ccc(C(NC(=O)C(C)C)c2cc([N+](=O)[O-])c3cccnc3c2O)cc1OC (stereo not drawn) | i
CCn1cc(C(=O)O)c(=O)c2cnc(N3CCN(C(=S)Nc4cc(Cl)cc(Cl)c4)CC3)nc21 | 5.4%
CC(Sc1nc(N)cc(=O)[nH]1)C(=O)Nc1ccc(S(N)(=O)=O)cc1 (stereo not drawn) | i
CCn1c(/C(C#N)=C/c2ccccc2Cl)nc2ccccc21 | i
CN(Cc1ccccc1)S(=O)(=O)c1ccc(NC(=O)Cc2cccs2)cc1 | i
Cc1ccc(N(CC(=O)NCc2ccccc2C)S(=O)(=O)c2ccc(Cl)cc2)cc1C | i
COc1ccccc1-c1nc(S(=O)(=O)c2ccc(Cl)cc2)c(N2CCOCC2)o1 | 2.9%
CC(C)NC(=O)CN(c1cccc(Cl)c1)S(=O)(=O)c1ccc(Cl)cc1 | i
COc1ccc(C2(CNC(=O)C(=O)Nc3ccc(C)cc3)CCOCC2)cc1 | 2.3%
Next part:
SMILES | Mtb growth
Cc1ccc(NC(=O)c2ccc(C(C)(C)C)cc2)cc1[N+](=O)[O-] | 3.4%
Cc1c(NC(=O)CSCc2ccc(Cl)cc2)c(=O)n(-c2ccccc2)n1C | i
O=C(c1ccc(Br)cc1)n1cccn1 | i
CCOC(=O)c1ccc(NC(=O)CCCSc2nc3sc4c(c3c(=O)[nH]2)CCC4)cc1 | i
O=C(OCc1ccc(Cl)cc1)C(c1ccccc1)c1ccccc1 | i
CSc1nnc(NC(=O)c2cccc(S(=O)(=O)N3CCCC3)c2)s1 | 0.2%
COc1ccc(S(=O)(=O)Nc2cccc(SC)c2)c(Cl)c1Cl | i
COc1cccc(-c2coc3c(C)c4oc(=O)c5ccccc5c4cc23)c1 | i
Cc1c(C(=O)Nc2ccccc2)oc2ccc(Cl)cc12 | 23.1%
COc1ccc(-c2csc(-c3ccccc3)n2)cc1[N+](=O)[O-] | 22.1%
COC(=O)c1c(NC(=O)c2ccncc2)sc(C)c1C | 2.0%
Cc1cccc(NC(=O)c2ccc(C(C)(C)C)cc2)n1 | 4.3%
CCOc1ccc(Cl)cc1CNCc1ccccn1 | ?
C=CCc1cc(C(=O)N2CCOCC2)ccc1O | i
Cc1cccc(-c2noc(COc3ccc(Br)c(C)c3)n2)c1 | 3.6%
CCOc1ccccc1NC(=S)NNC(=O)CSCc1ccccc1C | 2.4%
CCCS(=O)(=O)N1CCN(Cc2ccc(OC)c(OC)c2)CC1 | i
O=C(NC(=S)Nc1ccccc1N1CCCCC1)c1ccc(F)cc1 | i
O=C(Cc1ccccc1)Nc1ccc(-c2nc3ccccc3c(=O)[nH]2)cc1 | i
CC(=O)Nc1ccccc1C(=O)OCc1c(F)cccc1Cl | i
O=C(Nc1ccc(N2CCN(Cc3ccccc3F)CC2)cc1)c1sc2ccccc2c1Cl | 3.6%
Cc1cc(NC(=O)C2CC2)n(-c2nc3ccccc3[nH]2)n1 | ?
CNC(=S)N1N=C(c2ccc(Br)cc2)CC1c1ccccc1F (stereo not drawn) | 18.4%
CCc1cc(C(=O)OC)c(NC(=S)NNC(=O)Cc2c(F)cccc2Cl)s1 | i
COc1ccccc1NC(=O)c1sc2nc[nH]c(=O)c2c1C | i
COc1ccc(OC)c(CNc2cc(C)cc(C)c2)c1 | 7.2%
CCN(CC)S(=O)(=O)c1ccc(NC(=O)Nc2ccccc2)cc1 | i
COc1ccc(NC(=S)NNC(=O)c2ccc(-c3ccccc3)cc2)cc1OC | i
COc1ccccc1CNC(=O)CS(=O)(=O)c1ccccc1 | i
CS(=O)(=O)N(CC(=O)Nc1ccc(S(=O)(=O)N2CCCC2)cc1)c1ccc(Oc2ccccc2)cc1 | 5.3%
COc1ccc(C(C#N)N2CCC(c3ccccc3)=N2)cc1 (stereo not drawn) | i
Cc1ccc(-c2nn(-c3ccccc3)cc2CN(Cc2ccccc2)C(=O)c2ccco2)o1 | 17.3%
CCOC(=O)c1ccc(NC(=O)Cn2c(=O)oc3ccccc32)cc1 | i
